Screening results as filed in PubChem BioAssay.
VDR inh: blocks the human vitamin D receptor | 400,000 tested, 0.93% active | AID 504847 | Potency, µM, for inactives: max response, negative = inhibition, most hits filed as inhibitors | VDR-SRC2-3 peptide fluorescence polarization, 2 h; active means well fitted inhibition curve with a large enough effect; inconclusive means small, poorly fitted or top-dose-only effect, or another doubt; inactive means no such curve, though single readings can be large or run the other way; further: series mostly up to about 120 µM
Target sequence (P11473 whole entry, looked up): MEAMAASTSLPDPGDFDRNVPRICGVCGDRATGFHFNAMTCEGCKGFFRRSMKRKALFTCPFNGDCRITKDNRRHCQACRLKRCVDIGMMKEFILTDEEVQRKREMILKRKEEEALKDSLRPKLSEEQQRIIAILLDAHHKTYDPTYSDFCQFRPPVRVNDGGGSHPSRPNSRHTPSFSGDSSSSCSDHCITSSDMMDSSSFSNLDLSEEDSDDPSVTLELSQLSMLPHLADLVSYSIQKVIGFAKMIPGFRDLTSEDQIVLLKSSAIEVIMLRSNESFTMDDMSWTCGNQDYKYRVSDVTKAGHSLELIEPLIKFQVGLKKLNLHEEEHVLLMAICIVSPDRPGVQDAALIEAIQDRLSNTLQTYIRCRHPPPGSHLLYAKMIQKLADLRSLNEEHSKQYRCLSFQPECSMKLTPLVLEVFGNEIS
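FP read-out; VDR + SRC2-3 coactivator peptide; 23 nl compound by pintool; 2 h RT incubation; reagents held at 4 deg C, protected from light.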
* marks the source's active call; other numbers are inactive results; ? = inconclusive; & = joins results of further samples; [ ] = remark or other dose. On the % scale 0 is the no-effect control and ±100 the full control effect; potency means the concentration at half of the fitted maximal effect.

SMILES | VDR inh
CC(=O)c1cccc(NC(=O)c2cc(=O)c3ccccc3o2)c1 | 8%
Cc1ccccc1-n1cc(CNC(=O)C2CCC(=O)N(C3CC3)C2)cn1 (configuration not stated) | -10%
COc1ccc(C(=O)Nc2sc3c(c2C(=O)O)CC(C)(C)OC3)cc1 | -12%
Cc1ccc(SCc2ccc(C(=O)Nc3cccc([N+](=O)[O-])c3)cc2)cc1 | -3%
Cc1ccc(-c2nn(-c3ccccc3)cc2/C=C2\SC(=S)N(CC(=O)O)C2=O)cc1 | ?
CCOc1ccc(NC(=O)C2Cc3ccccc3CN2S(=O)(=O)CC)cc1 (configuration not stated) | 3%
Cc1cc(C)cc(C(=O)NCC(=O)OCC(=O)NC2CCCc3ccccc32)c1 (configuration not stated) | -2%
Cc1ccoc1C(=O)N1CCN(C(=O)c2occc2C)CC1 | 8%
COc1ccc(C2=NN(C(=O)CSc3nnc(C)c(=O)n3N)C(c3ccco3)C2)cc1 (configuration not stated) | -3%
CCOC(=O)C1(C)C=C(Nc2cccc(OC)c2)C(=O)N1c1ccccc1 (configuration not stated) | -4%
C[C@@H]1CC=C[C@@H]2[C@H]1C(=O)N(Cc1ccccc1)[C@H]2c1ccccc1Br | ?
Cc1cccc2nc(CSc3ccc(Cl)cc3)cn12 | -18%
CCOc1ccc(/C=N\NC(=O)c2c(C)nc3cc(C)ccn23)cc1 | 14%
CCN(C(=O)CSc1nnc(-c2ccccc2C)n1C)c1c(N)n(Cc2ccccc2)c(=O)[nH]c1=O | 7%
CCCc1nc2c(=O)n(C)c(=O)nc-2n(C)n1 | -12%
COc1cc(C(=O)NC2CCCc3ccccc32)cc(OC)c1OC (configuration not stated) | -7%
C=Cn1cc[n+](CC(=O)c2ccc(Br)cc2)c1 | -8%
CN1CCN(c2ccc(CNC(=O)c3ccco3)cc2)CC1 | 10%
COc1ncc2nc(-c3ccc(F)cc3)c(=O)n(CCC#N)c2n1 | 2%
Cc1ccccc1C(=O)NC1CCN(Cc2nnnn2Cc2ccccc2)CC1 | 9%
O=C(NCC(c1cccnc1)N1CCN(c2ccc(F)cc2)CC1)C1CCCCC1 (configuration not stated) | -2%
Cc1ccc(-n2c(Cc3cccs3)nnc2SCC(N)=O)cc1 | 0%
Cc1ccc(NC(=O)CN(C)C(=O)c2cc(-c3cccs3)nn2-c2ccccc2)cc1 | 1%
COc1cc(C(=O)NCCNC(=O)c2ccc(C)nc2)cc(OC)c1OC | 4%
N#C/C(=C\Nc1ccc(F)c(Cl)c1)S(=O)(=O)c1ccccn1 | -5%
Cc1cn(C2CC(O)C(CO)O2)c(=O)n(CCCc2ccccc2)c1=O (configuration not stated) | -7%
O=C(Cn1c(=O)c2c(ncn2Cc2ccccc2)n(Cc2ccccc2)c1=O)N1CCCC1 | 30%[activator]
CCC(CC)C(=O)c1c[nH]c(C(=O)OC)c1 | -8%
O=C(O)CSc1nc2ccc(C(=O)c3ccccc3)cc2[nH]1 | -8%
COc1ccc(Br)cc1CN(C)CC(=O)NCCc1ccccc1 | -12%
CC(CN1CCCCC1)OC(=O)C(C)(c1ccccc1)c1ccccc1 (configuration not stated) | 2%
CC(=O)c1ccc(N2CCN(C(=O)Nc3ccc(F)cc3F)CC2)cc1 | 10%
CCCc1cc(=O)n2[nH]c(NCc3ccc(CC)cc3)nc2n1 | 12%
Cc1cccc(C)c1OCC(=O)OCC(=O)c1ccc2c(c1)NC(=O)CO2 | 11%
COc1ccc(S(=O)(=O)N(C)CC(=O)NCc2ccco2)cc1Cl | -14%
NC(=O)c1ccc(NC(=O)CCC(=O)c2cccs2)cc1 | 14%
CCOC(=O)C1=C(COC(=O)CCOc2cc(C)ccc2C)NC(=O)NC1C (configuration not stated) | -1%
COc1ccc(CCC(C)N2CCOCC2)cc1 (configuration not stated) | -4%
C=CCn1c(CNS(=O)(=O)c2ccc(F)cc2)n[nH]c1=S | -1%
COc1cccc(NC(=O)CN(C)C(=O)Cc2ccc3c(c2)OCCO3)c1 | -16%
CC(=O)c1c(Nc2cccc(F)c2)oc(C)cc1=O | 0%
Cc1cc(C)cc(NC(=O)Cn2cnc3c(nnn3Cc3ccc(F)cc3)c2=O)c1 | -4%
COc1cccc2cc(-c3nc(Cl)c4c5c(sc4n3)CC(C)CC5)c(=O)oc12 (configuration not stated) | -6%
CCC(C)Nc1nc(OC)nc(N(C)C#N)n1 (configuration not stated) | -4%
COCCCN1CC(=O)N2Cc3[nH]c4ccccc4c3C[C@H]2C1=O | -18%
CC1(C)NC(=O)N(CCCCSc2ccc(Cl)cc2)C1=O | 10%
O=C(c1ccco1)N1CCC2(CC1)CCN(c1ccc(-c3ccccc3)cc1)CC2 | 9%
O=C(O)CSc1ccc2ccccc2n1 | -5%
COc1cccc(-n2c(SCC(=O)NCc3ccco3)nnc2-c2c[nH]c3ccccc23)c1 | 7%
Cc1ccc2c(C)c(C(=O)NCc3ccc(S(N)(=O)=O)cc3)oc2c1C | 3%
COC(=O)[C@@H]1C2CCC(C(=O)Nc3ccccc3)(CC2)[C@@H]1C(=O)OC | -5%
O=C(CCCNS(=O)(=O)c1cccc2nsnc12)NCc1ccc(F)cc1 | 11%
COc1cccc(C(=O)Nc2cccnc2)c1OC | 20%
C=CCN=c1scc(-c2ccc3c(c2)NC(=O)CO3)n1/N=C(\C)c1ccccn1 | -11%
Cc1ccc(NS(=O)(=O)c2cc(-c3cc(C)no3)ccc2C)c(Cl)c1 | 12%
CC(=O)c1cc(-c2ccccc2)n(CC(=O)Nc2ccc(C)cc2C)c1C | -16%
Cc1cccc(NC(=O)CCCSc2nc3ccccc3[nH]2)c1 | -6%
CCN1C(=O)C(=O)N(CC(=O)N2CCN(c3ccccc3)CC2)C1=O | 14%
Cc1cc(C(=O)Cn2nc(C(=O)O)c3ccccc3c2=O)c(C)n1CCc1ccc(Cl)cc1 | -5%
Nc1ccccc1N1CCN(C(=O)c2ccccc2)CC1 | -1%

Next part
SMILES | VDR inh
COc1cccc(NC(=O)CN(C)C(=O)CCCNC(=O)c2ccc(Cl)cc2)c1 | -8%
O=C1NC2(CCCCCC2)C(=O)N1Cc1c(F)cccc1Cl | 10%
CC(=O)c1ccc(NC(=O)c2cnc(N3CCCC3)nc2C)cc1 | 8%
O=C1N=C(N2CCC(Cc3ccccc3)CC2)S/C1=C/c1cn[nH]c1-c1ccccc1 | -5%
CCc1ccc2[nH]c3nc(SCCN4CCOCC4)nnc3c2c1 | ?
COc1ccc(CCNC(=O)CCCn2c(=O)c3ccccc3n(Cc3ccc(F)cc3Cl)c2=O)cc1OC | 5%
O=C1COc2ccc(C(=O)COC(=O)c3ccc(Cl)cc3[N+](=O)[O-])cc2N1 | 4%
O=C(CN1CCN(c2ccc(Cl)cc2)CC1)c1ccccc1 | -17%
CCOc1ccccc1CN1CCC(O)CC1 | -10%
COc1ccc([C@H]2CC(=O)C=C(/C=C/c3ccccc3)C2)cc1OC | -5%
CCOC(=O)C(C(=O)OCC)c1cc(Br)c2noc3c2c1C(=O)c1ccccc1-3 | ?
CCOC(=O)c1c(NC(=O)Cn2nc(C(F)(F)F)cc2C)sc2c1CCC2 | 14%
Cc1ccc(CN2CCN(c3ncccn3)CC2)o1 | ?
Cc1nc(SCC(=O)NCc2ccc3c(c2)OCO3)nc(C)c1C | -5%
CCCCn1c(CN2CCN(CCO)CC2)nc2ccccc21 | 4%
Nc1c(C(=O)N/N=C/c2ccccc2)cnn1-c1ccccc1 | -10%
COc1ccc2[nH]c(=O)c(CN(C(=O)C3CCCO3)c3ccc(C)c(C)c3)cc2c1 (configuration not stated) | 4%
CC(=O)Nc1ccc(NC(=O)CSc2nnc(CNc3ccc(F)cc3)n2CC2CCCO2)cc1 (configuration not stated) | -22%
COc1ccc(CCNC(=O)CCCN2C(=O)c3ccccc3C2=O)cc1OC | -9%
O=C(CSc1ncn[nH]1)c1ccc2c(c1)OCO2 | -5%
CC(CN1CC(=O)NC(=O)C1)N1CC(=O)NC(=O)C1 (configuration not stated) | ?
Cc1cc(N/N=C/c2ccc(F)cc2)nc(NCc2ccccc2)n1 | 18%
CC(CCc1ccccc1)NC(=O)COC(=O)C1CCC(C(C)(C)C)CC1 (configuration not stated) | 2%
Clc1ccccc1Nc1nc(-c2ccncc2)nc2ccccc12 | -6%
Cc1nc(SCC(=O)NC2CCCC2)[nH]c(=O)c1Cc1ccccc1 | -6%
COc1ccc(OC)c(NS(=O)(=O)c2ccc(N3CCCC3=O)cc2)c1 | 9%
O=C1C=C(N2CCCCC2)C2(CCCCC2)O1 | -15%
CCCSc1nc2c(c(=O)n1-c1ccc(OCC)cc1)SCC2 | 5%
CN(CC(=O)Nc1ccc(F)cc1)C(=O)Cn1cnc2ccc([N+](=O)[O-])cc2c1=O | 3%
Brc1cc2c(cc1COc1ccc(-c3nn[nH]n3)cc1)OCO2 | -5%
CC1CCCN(S(=O)(=O)c2ccc(Br)s2)C1 (configuration not stated) | -20%
CCOc1ccc(-n2c(SCc3nc(-c4ccccc4C)no3)nnc2-c2ccccc2)cc1 | -8%
NS(=O)(=O)c1ccc(NC(=S)N2CCN(c3ccccc3Cl)CC2)cc1 | -18%
CCOC(=O)N1CCN(c2c(N3CCN(c4ccccn4)CC3)c(=O)c2=O)CC1 | 2%
CCOC(=O)c1ccc(NC(=O)CSc2nc(=O)n(CCN3CCOCC3)c3c2CCC3)cc1 | -23%
c1ccc(SCCOCCn2cncn2)cc1 | 1%
COCCCNC(=O)CN1C(=O)COc2ccc(S(=O)(=O)N3CCCCCC3)cc21 | -28%&-6%
Cc1ccc(S(=O)(=O)c2c(O)cc(C)c(NS(=O)(=O)c3ccc(Cl)cc3)c2C)cc1 | 1%
Cn1c(=O)c2c(nc(NCCCCO)n2Cc2ccccc2Cl)n(C)c1=O | -3%
COCCCNC(=S)N(Cc1ccccc1)Cc1nc2ccccc2c(=O)[nH]1 | 2%
CCOc1ccc(CNC(=O)Cn2cc3c(n2)-c2c(oc(C(=O)N4CCOCC4)c2C)CC3)cc1 | -3%
CC(C)C(=O)NNS(=O)(=O)c1ccccc1 | -10%
CCOP(=O)(Cc1ccc(C(C)(C)CC(C)=O)o1)OCC | 15%
Cc1ccc(NC(=O)COC(=O)Cn2nc(-c3ccc(F)cc3)oc2=O)cc1C | -9%
NC(=O)c1c(NC(=O)c2cnccn2)sc2c1CCCC2 | 15%

Given with each value named: part of the list above.
> COCCCNC(=S)N(Cc1ccccc1)Cc1nc2ccccc2c(=O)[nH]1
  VDR inh: 2%
> CCOc1ccc(CNC(=O)Cn2cc3c(n2)-c2c(oc(C(=O)N4CCOCC4)c2C)CC3)cc1
  VDR inh: -3%
> CC(C)C(=O)NNS(=O)(=O)c1ccccc1
  VDR inh: -10%
> CCOP(=O)(Cc1ccc(C(C)(C)CC(C)=O)o1)OCC
  VDR inh: 15%

The list continues:
SMILES | VDR inh
COC(=O)c1ccc(Cl)c(NS(=O)(=O)c2ccc3c(c2)OCCO3)c1 | -24%
Cc1cc(=O)n2nc(N3CCCC(C(=O)NCc4ccc5c(c4)OCO5)C3)sc2n1 (configuration not stated) | 1%
CCOC(=O)C1CCN(S(=O)(=O)c2cc(C(=O)OC)n(C)c2)CC1 | -10%
Cc1ccc(CNC(=O)C(=O)NCC(c2cccnc2)N2CCN(c3ccc(F)cc3)CC2)cc1 (configuration not stated) | 4%
N/C(Cc1ccc(Cl)cc1)=N\OC(=O)c1cccc2ccccc12 | 10%
CCOC(=O)c1c(C)[nH]c(C(=O)OC(C)C(=O)NCc2ccccc2)c1C (configuration not stated) | -10%
CC1CCCN(C(=O)CCS(=O)(=O)c2ccc3c(c2)NC(=O)C(C)S3)C1 (configuration not stated) | -5%
CC(=O)c1cccc(NC(=O)CCCN2C(=O)COc3ccc(C)cc32)c1 | -6%
CC1=NN(c2cccc(C(=O)O)c2)C(=O)/C1=C\C=C/c1ccccc1 | ?
CCOC(=O)CCC(NC(=O)c1ccc(CNc2nc3cc(C(F)(F)F)ccc3nc2C(=O)OCC)cc1)C(=O)OCC (configuration not stated) | 1%
COCCCNC(=O)Cn1cc(/C=C(\C#N)C(=O)NC2CC2)c2ccccc21 | 1%
NS(=O)(=O)c1ccc(CCNC(=O)CN2CCN(Cc3cccc4ccccc34)CC2)cc1 | 0%
CN(C)c1ccc(C(=O)c2ccc(N(C)C)c(N)c2)cc1N | -5%
C/C(N)=C(/C#N)C(=O)COC(=O)CC12CC3CC(CC(C3)C1)C2 | -11%
Cc1ccc(NC(=O)c2ncn(CCCN[C@H](C)c3cccc4ccccc34)n2)cc1C | -22%
COc1ccc(C(=O)Nc2ccc(N3CCN(C)CC3)cc2)cc1OC | 38%[activator]
Cc1ccc(-n2c(=O)[nH]cc(C(=O)N3CCc4ccccc43)c2=O)cc1C | 2%
Nc1ccc2c(c1)Cc1cc(N)c(Br)cc1-2 | -1%
O=C(CSc1nnc(-c2ccccc2)c(-c2ccccc2)n1)NC1CCCCC1 | -11%
O=C(NCc1ccco1)C(=O)NCC1OCCN1S(=O)(=O)c1ccccc1 (configuration not stated) | 1%
COc1ccc(-n2c(=O)/c(=C\c3cccs3)s/c2=C(/C#N)C(=O)N2CCN(C)CC2)cc1 | -6%

Ordered by number of heavy atoms (largest number first): four of the compounds above.
SMILES | VDR inh
Cc1ccc(NC(=O)c2ncn(CCCN[C@H](C)c3cccc4ccccc34)n2)cc1C | -22%
O=C(CSc1nnc(-c2ccccc2)c(-c2ccccc2)n1)NC1CCCCC1 | -11%
Cc1ccc(-n2c(=O)[nH]cc(C(=O)N3CCc4ccccc43)c2=O)cc1C | 2%
Nc1ccc2c(c1)Cc1cc(N)c(Br)cc1-2 | -1%

Only part of the results is shown; rates above refer to the full screens.
